eIF4H FP inh = inhibitors of RNA binding by human eIF4H | Q15056 | eIF4H fluorescence polarization binding assay | inhibition, % at 35 µM | 0.94% of 290,000 active;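 active means 50% or more with normal probe brightness, or confirmed in later tests; inconclusive means above 50% with abnormal brightness, or retests that disagree; inactive means below 50% or failed in later tests; about a fifth of its hits are not listed in these tables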;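 further: calls also rest on retests at 20 µM and on dose response follow-up; 0% = protein and probe with vehicle and 100% = probe without protein; strong numbers were not always called active; many hits fall short of the cut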
UUG fidelity = yeast start codon fidelity modulation. activity score, % at 18.7 µM. S. cerevisiae UUG-firefly luciferase reporter, luminescence/redox ratio. 0.13% of 350,000 active;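 active means replicate mean at a twofold rise or more, about +100% in these data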;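 further: firefly luciferase made from a UUG start codon reports start codon fidelity; reporter light over untreated wells divided by growth signal over untreated wells; some hits fall short of that in this replicate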
Rce1 inhib = inhibitors of yeast Ras-converting enzyme | 0.27% of 290,000 active | AID 2563 | yeast membranes, quenched prenylated peptide cleavage fluorescence | calls only;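 active means fall in fluorescence gain of 50% or more versus controls, with final raw signal at or below 3038400; inconclusive means same 50% fall but final raw signal above 3038400; inactive means fall in fluorescence gain under 50%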;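 further: plate controls were neutral control wells for no effect and wells lacking membranes for full effect; tested at 10 µM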
Target sequence (Q03530 whole entry, looked up): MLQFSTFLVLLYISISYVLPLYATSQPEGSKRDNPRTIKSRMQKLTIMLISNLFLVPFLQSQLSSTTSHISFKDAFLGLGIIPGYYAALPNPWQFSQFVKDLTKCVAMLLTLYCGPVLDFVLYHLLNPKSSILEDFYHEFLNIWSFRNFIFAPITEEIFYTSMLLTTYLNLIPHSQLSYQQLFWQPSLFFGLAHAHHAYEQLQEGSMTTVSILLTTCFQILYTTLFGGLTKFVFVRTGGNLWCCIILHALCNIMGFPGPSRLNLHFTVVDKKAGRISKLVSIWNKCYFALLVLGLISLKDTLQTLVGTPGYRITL
MT1-MMP act inh = inhibitors of human MT1-MMP activation; P50281; HT1080 RFP-PRO-GFP cells, GFP/RFP ratio fluorescence, overnight; percent of plate control window, DMSO zero; GFP/RFP ratio change, % at 20 µM; 0.061% of 360,000 active;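 active means GFP/RFP ratio change of at least 30% with cell ATP level not reduced by more than half and red fluorescence within 50% of control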; further: strong numbers were not always called active
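Assay system: RFP-PRO-GFP reporter HT1080 cells; read-out basis: GFP/RFP fluorescence ratio; benchmarks: DMSO wells and RFP-L50D-GFP cells; doses: 20 µM single dose, 1% DMSO; schedule: overnight cell settling, then overnight compound exposure, 37 °C, 5% CO2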
HIV Env fusion = blocks HIV Env-driven cell-cell fusion. inhibition, % at 12.3 µM. 1.1% of 360,000 active. HeLa-JRFL Env/CEM21 cell fusion, luciferase;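 active means mean replicate inhibition score of at least 50 and every replicate individually at or above 50; inconclusive means only one of the two criteria met; inactive means mean below 50 and not all replicates reaching 50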;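 further: 0% = plate neutral controls and 100% = maraviroc near 300 nM; one replicate is shown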
PABP polyA inh = PABP-poly(A) binding inhibition; AID 2014; 1% of 290,000 active; PABP-poly(A) RNA binding, fluorescence polarization; inhibition, % at 35 µM;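 active means 50% or more with normal probe brightness, or confirmed in later tests; inconclusive means above 50% with abnormal brightness, or retests that disagree; inactive means below 50% or failed in later tests; about a fifth of its hits are not listed in these tables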;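 further: calls also rest on retests at 20 µM and on dose response follow-up; controls were probe without protein and protein plus probe with vehicle; some compounds called inactive have numbers as strong as hits; many hits fall short of the cut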
Target sequence (P11940 whole entry, looked up): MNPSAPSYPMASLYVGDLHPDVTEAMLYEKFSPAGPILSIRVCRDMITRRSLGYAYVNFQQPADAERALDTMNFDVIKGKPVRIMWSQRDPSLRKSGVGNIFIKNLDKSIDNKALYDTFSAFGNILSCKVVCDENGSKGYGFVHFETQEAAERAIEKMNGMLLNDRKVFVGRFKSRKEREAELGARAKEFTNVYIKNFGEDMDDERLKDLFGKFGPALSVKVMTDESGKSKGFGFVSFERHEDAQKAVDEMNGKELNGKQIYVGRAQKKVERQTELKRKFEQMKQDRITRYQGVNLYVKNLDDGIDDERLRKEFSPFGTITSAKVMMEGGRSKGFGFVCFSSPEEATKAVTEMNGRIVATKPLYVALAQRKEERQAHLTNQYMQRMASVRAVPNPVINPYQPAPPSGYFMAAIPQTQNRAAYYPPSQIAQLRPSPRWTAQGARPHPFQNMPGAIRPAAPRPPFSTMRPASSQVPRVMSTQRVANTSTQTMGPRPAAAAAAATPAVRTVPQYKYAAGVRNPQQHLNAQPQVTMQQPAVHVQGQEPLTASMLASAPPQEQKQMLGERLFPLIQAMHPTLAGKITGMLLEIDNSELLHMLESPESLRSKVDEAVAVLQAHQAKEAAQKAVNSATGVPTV
CSC inhib = cancer stem cell inhibition. cancer stem cell-like cells viability, luminescence. inhibition, % at 7.5 µM. 1.1% of 300,000 active. AID 2717;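 active means mean at 75% or more and at least half the replicates too; inconclusive means mean and replicates disagree; tested in HMLE shEcad cells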;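 further: 0% = median of negative and 100% = median of positive control wells; the first replicate is given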
MT1-MMP act inh RFP = second read-out of MT1-MMP act inh, no call of its own (marks repeat the call); RFP signal change, %; measured here: RFP expression control read;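 0 = vehicle wells; hits needed this value within 50% of zero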
Active calls of the source: *; i = inactive; ? = inconclusive; . = not tested or not shown; & = joins results of further samples. Rows are unselected, and some 2.9% of all compounds hit somewhere here.

SMILES | eIF4H FP inh | UUG fidelity | Rce1 inhib | MT1-MMP act inh | MT1-MMP act inh RFP | HIV Env fusion | PABP polyA inh | CSC inhib
COc1ccc(-c2ccc3c(c2)S(=O)(=O)c2cccc(C(=O)NC4CCCC4)c2C3=O)cc1OC | . | -9 | . | 1 | 5 | -23 | . | -7
O=C(O)c1ccc(NCCc2ccc(Cl)cc2)c([N+](=O)[O-])c1 | -7 | . | i | -1 | -2 | -8 | -14 | 6
CCCCCn1c(CN2CCN(C(=O)c3ccco3)CC2)nc2c1c(=O)n(C)c(=O)n2C | -4 | -9 | i | -1 | 0 | 3 | 1 | -4
CN(C)CCCN(C(=O)c1cc(Cl)sc1Cl)c1nc2cc3c(cc2s1)OCO3 | -4 | -2 | i | -5 | -1 | -3 | 5 | -2
CCN(C(=O)Cn1c(=O)oc2ccccc21)C1CCS(=O)(=O)C1 (stereo not given) | 2 | -13 | i | -1 | 4 | . | 4 | -6
Cc1cccnc1NC(=O)c1c(O)c2cccc3c2n(c1=O)CCC3 | 1 | -10 | i | 7 | 12 | . | 2 | -3
Cc1ccc(C2=NS(=O)(=O)N(C)C(C(=O)NCc3cccs3)=C2)cc1 | -2 | -7 | i | 5 | 0 | -4 | 1 | -5
O=C(CCC(=O)Nc1ccc(Br)cc1)N/N=C/c1ccc(F)cc1 | 10 | -13 | i | 4 | 4 | -11 | -2 | 0
COc1ccc(-c2noc(CSc3nc4sc(C)c(C)c4c(=O)n3-c3ccccc3)n2)cc1 | -6 | -11 | i | -7 | -3 | -3 | -8 | 11
CCN(CC)CCCn1c2c(c(SCC(=O)Nc3ccc4c(c3)OCCO4)nc1=O)CCC2 | . | 0 | i | -4 | 2 | . | . | -4
COCc1ccc(CN2CCCC(CCC(=O)NCc3ccc(C)o3)C2)o1 (stereo not given) | 0 | 2 | i | -10 | 4 | 9 | -10 | -6
Clc1ccc(OCc2nn3c(-c4ccco4)nnc3s2)c(Cl)c1 | 21 | -11 | i | -2 | -8 | -10 | -4 | -5
COc1ccc2ccccc2c1/C=N/N1C(=O)CSC1=S | 2 | . | i | 4 | 23 | 12 | 6 | -6
O=C(COC(=O)[C@@H]1CCCN1S(=O)(=O)c1ccc(Cl)cc1)NC1CC1 | -14 | 3 | . | 0 | 3 | -7 | -1 | 6
CC(=O)c1ccc(S(=O)(=O)N2CCN(C(C)C(=O)N(C)Cc3ccccc3)CC2)cc1 (stereo not given) | . | -12 | . | 6 | -2 | . | . | -9
CC(Sc1nnc(C2CC2)n1-c1ccccc1)C(=O)N1CCNC1=O (stereo not given) | . | -3 | . | 5 | 1 | -1 | . | .
CCOC(=O)c1sc2nc(CC(=O)OC)nc(NCCN(CC)CC)c2c1C | -1 | -3 | i | -5 | -2 | -20 | 3 | .
CCC(C)NC(=O)Cn1cnc2sc(C)c(S(=O)(=O)N3CCN(c4ncccn4)CC3)c2c1=O (stereo not given) | 1 | . | i | 3 | 2 | 7 | -5 | -3
Cc1ccc(C(=O)OCC(=O)NCc2cc(C)c(O)c(C)c2)cc1S(=O)(=O)N1CCCCC1 | . | -1 | . | -3 | -15 | . | . | -3
COc1cccc(NC(=S)N(Cc2ccco2)C(C)c2ccco2)c1 (stereo not given) | -1 | . | i | 0 | 3 | 16 | -18 | 10
Cc1cccc(C(=O)Nc2ccccc2C(=O)Nc2ccc(C(=O)O)cc2)c1 | -5 | -15 | . | -5 | -3 | -19 | -6 | -13
CC1=CC(=O)c2ccccc2C1=O | -1 | -16&-5 | i | -103&-53 | -8&6 | -14 | 1 | -15&-1
COc1ccc(C2Nc3ccccc3C(=O)N2c2ccccc2)cc1CSc1ccccn1 (stereo not given) | -3 | -1 | i | 12 | -5 | . | -6 | 3
CCCCNC(=S)N/N=C/c1sccc1C | -2 | . | i | 1 | 0 | -14 | -4 | -10
CCOc1ccc(CCNC(=O)CSc2cc(=O)n(CC)c3ccccc23)cc1OCC | -5 | 22 | i | 2 | -1 | . | -3 | -9
CCN(CC)CCCN(Cc1cc2cc(OC)ccc2[nH]c1=O)C(=O)Nc1ccc(F)cc1 | 9 | . | i | -6 | -1 | . | 2 | 9
Cc1ccc(CNC(=O)c2c(-c3ccccc3)sc3ccccc23)o1 | . | -8 | . | -1 | -9 | -9 | . | 64
Cc1nnc(NC(=O)CN2CCN(Cc3ccc(F)cc3Cl)CC2)s1 | -14 | -14 | i | 0 | 1 | -3 | -2 | 4
N#CC1(c2ccccc2)CCC(=O)N1Cc1ccccc1 (stereo not given) | -3 | 4 | . | 1 | 1 | 8 | -7 | -10
O=C(CN(CCc1ccccc1)C(=O)CN1C(=O)COc2ccccc21)NCc1ccco1 | 1 | . | i | 1 | 1 | 6 | 12 | 2
Cc1ccc2cccc(OCc3cccc([N+](=O)[O-])c3)c2n1 | -3 | -7 | i | 8 | 4 | 20 | 4 | 7
O=c1[nH]c2ccccc2n2c(-c3ccncc3)nnc12 | -12 | -21 | . | 5 | 5 | . | 5 | .
O=C(COc1ccc(F)cc1)N1CCCc2ccccc21 | -6 | 8 | i | 3 | 4 | -5 | -12 | -4
O=S(=O)(/N=C(/Nc1nc2ccccc2s1)c1ccccc1)c1ccccc1 | . | -11 | . | -6 | -1 | ? | . | 8
O=C(Nc1ccc(Cl)cc1)c1nc[nH]c1C(=O)N1CCN(c2ccccc2)CC1 | . | 6 | . | 2 | 4 | -7 | . | .
CCN1C(=O)CC(Sc2ccccc2C(=O)O)C1=O (stereo not given) | -5 | -3 | i | 0 | -1 | -21 | 12 | 4
N[C@@H](Cc1ccc(O)cc1)c1nnc([C@H](CO)NC(=O)C2CCNCC2)o1 | 4 | 0 | i | -1 | 2 | 14 | 4 | -6
Cc1cc(C(=O)N/N=C/c2ccc[nH]2)no1 | 5 | 16 | i | 10 | 6 | -14 | -4 | -17
O=C(NCCOc1ccccc1F)C1CCC(=O)N(CC2CCCCC2)C1 (stereo not given) | -14 | -5 | i | 5 | 3 | 2 | 0 | .
O=C(NC(=S)NCc1ccccc1)c1cccc(Cl)c1 | 12 | -22 | i | -3 | -5 | -129 | 9 | 0
Cc1nc(C#N)c(NCc2ccc3c(c2)OCO3)o1 | 0 | -15 | i | 5 | 6 | . | -12 | -13
Brc1ccc2[nH]c3c(N4CCc5ccccc5C4)ncnc3c2c1 | -1 | . | i | . | . | . | -14 | 80*
O=C(Nc1ccc2ncccc2c1)c1ccccc1Cl | 0 | 8 | i | 0 | -3 | -5 | 74* | 5
COc1ccc(CN2CCc3c([nH]c4ccccc34)C2)cc1Br | 2 | 1 | . | 2 | -11 | -8 | 4 | 50
COC(=O)c1ccc(NC(=O)Nc2ccc(OC)cc2)cc1 | -2 | -16 | i | 3 | 2 | -13 | 8 | 1
O=[N+]([O-])c1ccc(CNc2ccc(Cl)cc2)s1 | -6 | -21 | i | 2 | 2 | 0 | -8 | 12
COC(=O)COc1ccc2cccc(-n3cnnn3)c2c1 | -4 | -15 | i | 4 | 7 | 6 | 11 | -6
CCc1ccccc1NS(=O)(=O)c1ccc(OC)c2ncccc12 | -4 | -22 | i | 5 | 1 | 10 | 3 | 0
COC(=O)[C@]1(C)CCC[C@@]2(C)C3CC[C@@]4(C)C[C@]3(CCC21)CC4=NO (stereo not given in full) | . | 22 | . | 5 | -8 | 18 | . | -6
O=C(Cc1ccc(Cl)cc1)Nc1ccc(S(=O)(=O)N2CCOCC2)cc1 | 4 | 8 | i | 0 | -4 | 23 | 4 | -16
CCCn1nnc(NC(=O)/C=C/c2ccccc2)n1 | -5 | . | i | -2 | -3 | -12 | -9 | .
O=C(CCc1nnc(-c2ccc3c(c2)OCO3)o1)NC(c1cccnc1)C(F)(F)F (stereo not given) | 2 | -5 | i | -5 | 2 | 13 | 5 | -1
Nc1nc(SCC(=O)Nc2cccc([N+](=O)[O-])c2)n[nH]1 | . | -23 | . | 0 | 6 | -20 | . | -13
Cc1cc(C)c(NC(=O)C(=O)NCc2ccco2)c(C)c1 | 6 | -24 | i | 2 | 2 | . | -5 | -7
COc1ccccc1NC(=O)CCCC(=O)OCC(=O)c1ccc(F)cc1 | 8 | . | i | 0 | -1 | 4 | 0 | -28
CCCN(CCC)C(=O)c1cc2c(=O)[nH]c3ccc(C)cc3c2s1 | 5 | -6 | i | -5 | -4 | -18 | ? | -12
O=C(CN1CCN(C(c2ccccc2)c2ccccc2)CC1)Nc1ccc(N2CCOCC2)cc1 | -4 | . | i | 1 | 4 | -5 | -8 | -14
COc1ccc2nc(NC(=O)CSc3nnc4n3C(C)(C)Cc3ccccc3-4)sc2c1 | -3 | -5 | i | 1 | 1 | 23 | 2 | 1
CCC1(C)Cc2ccccc2-c2nc(NCCO)n(-c3ccccc3)c(=O)c21 (stereo not given) | -10 | -6 | i | 0 | -2 | 20 | -3 | -6
Cc1sc2nc(-c3cccnc3)nc(Cl)c2c1-c1ccccc1 | -9 | -8 | i | -7 | -4 | -60 | 5 | 24

The results go on.
SMILES | eIF4H FP inh | UUG fidelity | Rce1 inhib | MT1-MMP act inh | MT1-MMP act inh RFP | HIV Env fusion | PABP polyA inh | CSC inhib
CC(Oc1ccc2c(c1)oc(=O)c1ccccc12)C(=O)NCCN1CCOCC1 (stereo not given) | -4 | -5 | i | 1 | 3 | -2 | 0 | 2
O=C(Nc1cccnc1)c1cc([N+](=O)[O-])ccc1Cl | 0 | . | i | 0 | -1 | 2 | 2 | -6
COc1ccccc1-c1cc(C(=O)N/N=C/c2sccc2C)c2ccccc2n1 | -7 | -19 | i | 1 | -9 | . | 0 | -17
CCOC(=O)C1=C(CSc2nccn2C)NC(=O)NC1c1ccc(OC)cc1 (stereo not given) | -1 | -16 | i | -2 | 1 | -23 | -1 | -5
CCCc1c(C(=O)N/N=C(\C)c2ccc(O)cc2)nnn1-c1nonc1N | -6 | -16 | i | -2 | -2 | -4 | 2 | 2
O=C(COc1ccccc1)OCC(=O)c1c[nH]c2ccccc12 | . | -6 | . | 4 | 0 | 19 | . | -6
COc1cccc(OC)c1C1=NC(C)(C)CO1 | 3 | -22 | . | -2 | -2 | -7 | -3 | -11
Cc1csc2ncnc(NC3CCN(Cc4ccccc4)CC3)c12 | 3 | -14 | i | -4 | -32 | 32 | 3 | -4
COc1cc(OC)c(NC(=O)C2CCN(S(=O)(=O)c3ccc4c(c3)CC(C)N4C(C)=O)CC2)cc1Cl (stereo not given) | -2 | -5 | i | 5 | -13 | 17 | 10 | -8
Cc1cc2nnc(SCC(=O)NCC(c3ccccc3)N(C)C)n2c2ccccc12 (stereo not given) | -2 | -11 | i | 3 | 7 | . | -12 | -2
Cc1cnc(NC(=O)Cc2ccccc2F)s1 | -5 | -12 | i | -7 | 1 | 9 | 1 | -10
Cc1cc(C)nc(SCCc2ccncc2)n1 | 7 | -20 | i | 2 | 3 | -20 | 9 | -5
COc1cc(C(=O)N(Cc2ccc(C)o2)C2CCS(=O)(=O)C2)cc(OC)c1OC (stereo not given) | -10 | 1 | i | -1 | 3 | -9 | 0 | -10
COc1ccc(C=NNC(=O)NN=Cc2ccc(OC)c(OC)c2)cc1OC | . | -11 | . | 1 | -6 | -116 | . | .
Cc1noc(C)c1C(=O)N(CC(=O)Nc1ccccc1Br)Cc1ccco1 | . | -12 | . | 4 | 4 | 0 | . | .
O=C(NCC(=O)N(Cc1ccco1)C(C(=O)NC1CCCC1)c1cccnc1)c1ccco1 (stereo not given) | . | -13 | i | 9 | 4 | -96 | . | -9
COc1ccc(CC(N)c2csc(NC(=O)Nc3ccc(OC)cc3)n2)cc1 (stereo not given) | . | -20 | . | -2 | -8 | 37 | . | .
CCCN(CC1CC1)C(=S)Nc1ccc(Oc2ccccc2)cc1 | 2 | . | i | 2 | -2 | 22 | -3 | 14
CCCCCCn1c(NCC)nc2c1c(=O)n(C)c(=O)n2C | 5 | -3 | i | -5 | -26 | . | 1 | 4

Compound activity deposited in PubChem by several laboratories.
